ALR inh: inhibitors of human ALR sulfhydryl oxidase, primary screen, biochemical, H2O2 detection, HRP-luminol luminescence, single point. purified ALR, DTT oxidation. inhibition, % (no concentration beside the values). hit rate 3.8% among 290,000. AID 485317, 2010;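 active = mean and each replicate at 75% or more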;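 note: stock transfer was 7.5 nL into about 7.5 µL; 0% = neutral wells and 100% = wells with inactivated enzyme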
Ecoli rRNA inh: reduced GFP signal of wild-type E. coli, primary screen, bacterial rRNA inhibitor project, GFP/RFP fluorescence, OD600, single point; GFP signal change (wild-type ribosome), % (test concentration not listed); AID 720706, 2013; E. coli WT GFP vs humanized-ribosome RFP mutants, 24 h; active compounds read low; DMSO median 0, no signal -100; hit rate 1.6% among 350,000;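 active = significant combined selectivity score with lowered wild-type GFP, culture density cut under 30%, mutant RFP and density less affected; inactive = any of these conditions unmet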; note: one replicate is shown; some compounds called inactive have numbers as strong as hits
FGF22 binding: binders of human FGF22 protein, primary screen, FGF22 synaptogenesis inhibitor project, biophysical, thermal shift, single point. recombinant FGF22 thermal shift, SYPRO orange fluorescence; percent of sucrose octasulfate shift, DMSO zero. calls only at 9.99 µM. hit rate 1.5% among 340,000. AID 651658, 2012;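 active = melting point raised past a set limit in the mean and every replicate; three in four hits are not shown here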
Target sequence (Q9HCT0 whole entry, looked up): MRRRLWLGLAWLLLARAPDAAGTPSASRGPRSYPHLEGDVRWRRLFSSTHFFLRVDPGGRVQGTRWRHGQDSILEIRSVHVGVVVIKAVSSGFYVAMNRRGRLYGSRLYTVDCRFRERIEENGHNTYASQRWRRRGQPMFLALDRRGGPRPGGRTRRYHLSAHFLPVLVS
Ecoli growth: E. coli growth inhibition, primary screen, OD600 | Escherichia coli growth, 23 h; active compounds read low | hit rate 0.21% among 330,000 | OD600 absorbance (test concentration not listed);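 active = OD600 absorbance below the run mean of sample wells minus 3.6 SD, in any replicate, cut at about 0.56 in these data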;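 note: stock transfer was 300 nL into about 60 µL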
HNF4A DNA FP: change in binding of human HNF4A to DNA, primary screen, biochemical, fluorescence polarization, FITC-DNA | 1 h | activity change, % at 10 µM | hit rate 0.3% among 360,000 | AID 1224865, 2016; in the data active = activity change above about 30%, passing the limit was not always enough;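 note: controls were the assay level and a saturating level of protein; the project sought stronger binding though the title names inhibitors; some compounds called inactive have numbers as strong as hits; positive values seem to mean higher polarization but the record does not say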
UCH37 inh: inhibitors of human UCH37 deubiquitinase, primary screen, biochemical, Ub-AMC cleavage, fluorescence; Ubiquitin carboxyl-terminal hydrolase isozyme L5 (Homo sapiens), Q9Y5K5; purified proteasome/UCH37; inhibition, % (test concentration not listed); hit rate 0.33% among 330,000;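 active = mean of two replicates above 20%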;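 note: 0% = compound-free wells with enzyme and 100% = wells lacking proteasome; stock transfer was 100 nL into about 20 µL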
Target sequence (Q9Y5K5 whole entry, looked up): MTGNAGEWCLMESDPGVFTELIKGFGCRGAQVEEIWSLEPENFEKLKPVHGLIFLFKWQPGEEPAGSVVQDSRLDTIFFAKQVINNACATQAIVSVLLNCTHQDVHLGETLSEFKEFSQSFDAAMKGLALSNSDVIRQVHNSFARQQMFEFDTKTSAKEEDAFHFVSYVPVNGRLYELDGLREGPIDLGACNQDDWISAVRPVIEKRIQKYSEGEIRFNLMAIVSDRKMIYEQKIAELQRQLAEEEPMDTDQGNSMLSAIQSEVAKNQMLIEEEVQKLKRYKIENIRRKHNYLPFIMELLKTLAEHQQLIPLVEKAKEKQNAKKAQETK
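System: Proteasome-associated human UCH37 deubiquitinase; Input: 0.15 nM proteasome in added enzyme buffer; Also added: Ub-AMC substrate from 1 µM stock; Incubation: 30 min compound-proteasome preincubation then 25 min substrate reaction, room temperature; Detection: fluorescence, ex 355 nm, em 460 nm; Read-out: % inhibition of Ub-AMC cleavage fluorescence; Benchmarks: no-proteasome and no-compound wells.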
Beta2AR agonist: beta2AR agonists driving receptor internalization, primary screen, cell-based, FAP fluorogen, flow cytometry. Beta-2 adrenergic receptor (Homo sapiens), P07550. Am2.2-beta2AR cells; reference of the scale not given here. response, % (concentration not given with the values). hit rate 0.43% among 340,000;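 active = response above a set limit, near 3 SD of response in nonfluorescent compounds, cut at about 42% in these data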;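 note: stock transfer was 100 nL into about 11 µL; a reference agonist was the positive control; negative values mostly stem from fluorescent compounds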
Target sequence (P07550 whole entry, looked up): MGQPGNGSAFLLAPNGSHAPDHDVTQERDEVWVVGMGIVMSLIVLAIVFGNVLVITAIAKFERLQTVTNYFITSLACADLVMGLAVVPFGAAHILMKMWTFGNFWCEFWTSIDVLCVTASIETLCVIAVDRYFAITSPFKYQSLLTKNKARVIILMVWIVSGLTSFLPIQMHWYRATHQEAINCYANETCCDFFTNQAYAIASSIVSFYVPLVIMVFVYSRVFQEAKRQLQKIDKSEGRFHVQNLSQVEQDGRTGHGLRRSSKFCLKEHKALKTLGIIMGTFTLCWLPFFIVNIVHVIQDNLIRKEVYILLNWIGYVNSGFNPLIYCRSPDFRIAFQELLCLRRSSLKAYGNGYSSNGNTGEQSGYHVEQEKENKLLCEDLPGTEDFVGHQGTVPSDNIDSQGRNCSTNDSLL
Ecoli rRNA inh OD600: second read-out of Ecoli rRNA inh, no call of its own (marks repeat the call); OD600 change, %; measured here: OD600 growth;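 optical density of the mix in the first replicate; 0 = DMSO median and -100 = no signal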
Ecoli rRNA inh RFP: recorded beside Ecoli rRNA inh, whose call it bears; RFP signal change, %; measured here: RFP humanized mutant strains;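 first replicate; 0 = DMSO median and -100 = no signal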
Numbers without * were called inactive; i = inactive; . = not tested or not shown; & = joins results of further samples.

SMILES	ALR inh	Ecoli rRNA inh	Ecoli rRNA inh OD600	Ecoli rRNA inh RFP	FGF22 binding	Ecoli growth	HNF4A DNA FP	UCH37 inh	Beta2AR agonist
Cc1ccc2nc(N3CCN(C)CC3)[nH]c2c1	22.2	.	.	.	.	0.643	-3.8	3.7	-4.5
Cc1cccn2c(NCC3CCCO3)c(C(C)C)nc12 (centres undefined)	77.5*	.	.	.	.	0.692	2.5	-75.2	-3.0
O=c1[nH]c(=O)n(Cc2ccccc2)c(O)c1C=NCCN1CCOCC1	5.2	.	.	.	.	0.7	4.3	2.7	4.5
CCN1CCN(Cc2cc(Br)cc(Br)c2O)CC1	98.6*	.	.	.	.	0.695	1.3	5.3	-0.7
Cc1cc(C)c(C(=O)CN2CCOCC2)c(C)c1	0.6	.	.	.	.	0.766	-0.9	-0.5	-0.9
O=P(Nc1ccccc1)(Nc1ccccc1)Oc1ccccc1	-4.4	.	.	.	i	0.693	1.1	1.2	-2.0
CC1CCC[C@H](O)CCCCCc2cc(O)cc(O)c2C(=O)O1 (some centres undefined)	-1.7	.	.	.	i	.	-2.0	2.3	6.3
CC(C)CCP(=O)(O)c1ccccc1	-3.4	12.4	14.8	-2.3	i	0.685	-0.5	2.2	0.8
COc1cc(C=C2C(=O)NC(=O)NC2=O)ccc1OCc1ccc([N+](=O)[O-])cc1	.	3.0	3.4	1.3	i	0.74	0.3	-0.1	-3.0
Cc1ccc(-c2nn(Cc3ccccc3)cc2C(=O)O)cc1	.	-0.5	4.4	-4.8	i	0.663	1.3	1.9	7.5
CCCCOC(=O)c1ccccc1C(=O)OCc1ccccc1	23.0	-19.8	-19.4	0.8	i	0.66	5.2	3.7	3.4
CN1C(=O)N(C)C(=O)C2(Cc3ccccc3N3CCOCC32)C1=O (centres undefined)	65.4	.	.	.	.	0.721	3.0	3.3	0.2
OC(c1ccccc1)(c1ccccc1)C1CCCN1 (centres undefined)	-9.1	15.9	11.0	-10.9	i	0.737	-0.7	-1.8	5.8
COC(=O)C1=C(c2cccc(C#N)c2)C[C@@H]2CC[C@H]1N2C(=O)NCc1ccco1	3.9	1.5	1.2	5.2	i	.	-3.4	2.9	-3.0
COc1ccc(-n2nnnc2C(CCSC)N2CCC3(CC2)C(=O)NCN3c2ccccc2)cc1 (centres undefined)	.	-21.1*	-15.5*	4.9*	i	.	-3.4	.	.
CN1C(=O)C(=Cc2ccc(N3CCOCC3)c([N+](=O)[O-])c2)C(=O)N(C)C1=O	14.2	.	.	.	.	0.73	.	4.4	.
CCOC(=O)c1c(C)n(Cc2ccco2)c2c1cc(O)c1ccccc12	-5.1	.	.	.	.	0.718	2.1	2.2	8.8
CCCCOc1ccc(C(C)=O)cc1Cc1c(O)[nH]c(=S)[nH]c1=O	41.7	7.2	5.4	-1.5	i	0.709	0.1	2.4	-5.6
Cn1ncc(Cl)c1C(=O)N1CCC2(CC1)OCCO2	-5.9	3.3	4.8	0.9	i	0.755	3.8	0.7	-3.3
CCOc1cc2c(cc1OCC)-n1cccc1C(c1ccc(C)cc1C)NC2 (centres undefined)	-8.0	-57.4	-78.3	-14.0	i	0.677	0.9	5.4	-1.4
CCC(C)N1CCN(C(=O)Cc2ccccc2)CC1 (centres undefined)	-4.4	.	.	.	.	0.675	-8.3	0.2	4.6
C[C@H]1CN([C@@H](C)CO)C(=O)CCCn2nncc2CO[C@H]1CN(C)C(=O)Oc1ccc2ccccc2c1	.	1.2&-3.7	3.3&-0.9	-1.6&0.4	i	.	-2.1	.	.
CN(CCc1ccccc1)Cc1c[nH]c2ccccc12	41.2	10.4	9.4	-2.3	i	0.68	1.9	-0.6	4.3
CC(C)C(C)(NC(=O)c1cccn(Cc2ccc3c(c2)OC(F)(F)O3)c1=O)C(N)=O (centres undefined)	1.0	-6.9	-9.6	1.4	i	0.657	-2.2	-6.9	-1.6
O=[N+]([O-])c1ccc(N2CCCC(C(F)(F)F)C2)c2ccncc12 (centres undefined)	-11.7	-7.2	-10.2	9.4	i	0.672	0.2	7.0	-9.7

Reformatted: 14 of the compounds above.
Each structure is followed by: ALR inh | Ecoli rRNA inh | Ecoli rRNA inh OD600 | Ecoli rRNA inh RFP | FGF22 binding | Ecoli growth | HNF4A DNA FP | UCH37 inh | Beta2AR agonist
CN1C(=O)N(C)C(=O)C2(Cc3ccccc3N3CCOCC32)C1=O (centres undefined)
    65.4 | . | . | . | . | 0.721 | 3.0 | 3.3 | 0.2
OC(c1ccccc1)(c1ccccc1)C1CCCN1 (centres undefined)
    -9.1 | 15.9 | 11.0 | -10.9 | i | 0.737 | -0.7 | -1.8 | 5.8
COC(=O)C1=C(c2cccc(C#N)c2)C[C@@H]2CC[C@H]1N2C(=O)NCc1ccco1
    3.9 | 1.5 | 1.2 | 5.2 | i | . | -3.4 | 2.9 | -3.0
COc1ccc(-n2nnnc2C(CCSC)N2CCC3(CC2)C(=O)NCN3c2ccccc2)cc1 (centres undefined)
    . | -21.1* | -15.5* | 4.9* | i | . | -3.4 | . | .
CN1C(=O)C(=Cc2ccc(N3CCOCC3)c([N+](=O)[O-])c2)C(=O)N(C)C1=O
    14.2 | . | . | . | . | 0.73 | . | 4.4 | .
CCOC(=O)c1c(C)n(Cc2ccco2)c2c1cc(O)c1ccccc12
    -5.1 | . | . | . | . | 0.718 | 2.1 | 2.2 | 8.8
CCCCOc1ccc(C(C)=O)cc1Cc1c(O)[nH]c(=S)[nH]c1=O
    41.7 | 7.2 | 5.4 | -1.5 | i | 0.709 | 0.1 | 2.4 | -5.6
Cn1ncc(Cl)c1C(=O)N1CCC2(CC1)OCCO2
    -5.9 | 3.3 | 4.8 | 0.9 | i | 0.755 | 3.8 | 0.7 | -3.3
CCOc1cc2c(cc1OCC)-n1cccc1C(c1ccc(C)cc1C)NC2 (centres undefined)
    -8.0 | -57.4 | -78.3 | -14.0 | i | 0.677 | 0.9 | 5.4 | -1.4
CCC(C)N1CCN(C(=O)Cc2ccccc2)CC1 (centres undefined)
    -4.4 | . | . | . | . | 0.675 | -8.3 | 0.2 | 4.6
C[C@H]1CN([C@@H](C)CO)C(=O)CCCn2nncc2CO[C@H]1CN(C)C(=O)Oc1ccc2ccccc2c1
    . | 1.2&-3.7 | 3.3&-0.9 | -1.6&0.4 | i | . | -2.1 | . | .
CN(CCc1ccccc1)Cc1c[nH]c2ccccc12
    41.2 | 10.4 | 9.4 | -2.3 | i | 0.68 | 1.9 | -0.6 | 4.3
CC(C)C(C)(NC(=O)c1cccn(Cc2ccc3c(c2)OC(F)(F)O3)c1=O)C(N)=O (centres undefined)
    1.0 | -6.9 | -9.6 | 1.4 | i | 0.657 | -2.2 | -6.9 | -1.6
O=[N+]([O-])c1ccc(N2CCCC(C(F)(F)F)C2)c2ccncc12 (centres undefined)
    -11.7 | -7.2 | -10.2 | 9.4 | i | 0.672 | 0.2 | 7.0 | -9.7

Next section:
SMILES	ALR inh	Ecoli rRNA inh	Ecoli rRNA inh OD600	Ecoli rRNA inh RFP	FGF22 binding	Ecoli growth	HNF4A DNA FP	UCH37 inh	Beta2AR agonist
O=C(CN1CCCC1=O)N1CCOCC1	1.1	.	.	.	.	0.714	0.9	2.9	-1.5
COCCCn1c(-c2ccc(OC)cc2)cc(C(=O)NC2CCCCCCC2)c1C	51.0	-10.4	-10.7	-1.1	i	0.667	-1.3	3.6	-10.2
CCC(=NCCC(c1ccccc1)c1ccccc1)c1c(O)[nH]c(=O)[nH]c1=O	-7.8	.	.	.	.	0.678	-0.2	0.6	4.5
COc1ccc(-n2c(O)c(C=NCc3ccc4c(c3)OCO4)c(=O)[nH]c2=O)cc1	-3.5	15.0	16.5	9.8	i	0.635	-0.5	5.3	-6.3
COc1ccc(OC)c(N2C(=O)NC(=O)C3(Cc4cc(C)ccc4N(C)C3)C2=O)c1 (centres undefined)	-20.5	-2.7	-1.4	3.2	.	0.651	-2.4	2.7	0.4
CCN1CCN(C(=O)Cc2coc3ccc4ccccc4c23)CC1	-8.3	.	.	.	.	0.693	0.0	-2.2	4.8
Clc1ccc(C(OCCN2CCCCC2)c2ccccc2)cc1 (centres undefined)	-16.5	.	.	.	i	0.619	-1.2	5.3	9.9
N=C1c2ccccc2CN1c1cccc([N+](=O)[O-])c1	-2.0	10.4	12.9	2.9	i	0.599	2.2	1.2	-9.7
Fc1ccc(Cn2nnnc2CN2CCC(n3nnc4cc(C(F)(F)F)ccc43)CC2)cc1	-7.8	-15.2	-11.2	9.3	i	0.673	-3.1	4.3	2.5
CCCCC(=O)C1C(=O)NC(=O)NC1=O	-4.9	.	.	.	.	0.694	0.2	4.0	3.9
CCN1CCN(c2nc3c(c(=O)[nH]2)CCCC3)CC1	.	.	.	.	.	0.701	4.4	0.4	7.6
CCOP(=O)(NC(C)C)Oc1ccc(SC)c(C)c1 (centres undefined)	.	-3.9	4.3	-0.4	i	0.672	-2.1	1.9	-9.1
CCN(CC)C(=O)c1ccc(NC(=O)c2ccc(-c3nn(C)c(=O)c4ccccc34)cc2)cc1	-1.8	11.2	17.8	1.2	.	0.682	0.7	4.0	14.5
S=P(NCCSCc1ccccc1)(N1CC1)N1CC1	.	2.2	5.4	1.2	i	0.712	1.4	0.0	-5.4
COc1cccc(CN2CCN(Cc3cccc(F)c3)CC2)c1	0.5	2.8	3.2	0.3	i	0.704	-13.3	1.5	-7.2
O=c1[nH]c(=O)n(CCC2=CCCCC2)c(O)c1/C=N/Nc1ccccc1	98.2*	.	.	.	i	0.713	0.2	0.5	7.1
COC12CCC3(CC1C(C)(O)C(C)(C)C)[C@H]1Cc4ccc(O)c5c4[C@@]3(CCN1CC1CC1)C2O5 (some centres undefined)	.	3.7	-8.8	3.3	i	0.75	1.5	1.2	4.5
CCc1nc2ccccc2c(=O)n1-c1ccccc1[N+](=O)[O-]	-1.7	.	.	.	.	0.701	2.4	0.7	0.9
C[C@]12CCC(=O)C=C1CCC1C2CC[C@@]2(C)C1CC[C@]2(C)O (some centres undefined)	-5.8	-39.0	-51.8	4.6	i	0.707	-1.7	1.5	-6.0
COC(=O)C1=C(c2ccc(Cl)c(C(F)(F)F)c2)C[C@@H]2CC[C@H]1N2C(=O)NCc1cc(C)oc1C(F)(F)F	3.2	6.2	-12.3	4.6	i	.	-5.9	0.4	7.6
CN1CCCC(C(=O)c2ccc(Cl)cc2)C1 (centres undefined)	4.2	14.7	11.2	2.3	i	0.679	4.3	-0.1	-10.0
CCC(C)C1(CC)C(=O)NC(=O)N=C1N (centres undefined)	-14.3	.	.	.	.	0.678	0.3	4.1	-1.8
Cn1c(O)c(C=NCCN2CCN(C(=O)c3ccccc3)CC2)c(=O)n(C)c1=O	4.6	.	.	.	.	0.743	1.1	-3.5	-7.7

Record cards, as listed above. Screens in order: ALR inh, Ecoli rRNA inh, Ecoli rRNA inh OD600, Ecoli rRNA inh RFP, FGF22 binding, Ecoli growth, HNF4A DNA FP, UCH37 inh, Beta2AR agonist
CCC(C)C1(CC)C(=O)NC(=O)N=C1N (centres undefined) is listed with -14.3, ., ., ., ., 0.678, 0.3, 4.1, -1.8
Fc1ccc(Cn2nnnc2CN2CCC(n3nnc4cc(C(F)(F)F)ccc43)CC2)cc1 is listed with -7.8, -15.2, -11.2, 9.3, i, 0.673, -3.1, 4.3, 2.5

These rows are one share of the data; count on the stated rates, not on these rows.
